Assay outcomes from PubChem.
VDR inhibitor: inhibitors of human vitamin D receptor | P11473 | VDR-SRC2-3 peptide fluorescence polarization, 2 h | Potency, µM, for the others: max response, negative = inhibition, usual class: inhibitors | 0.93% of 400,000 active; active = well fitted inhibition curve with a large enough effect; inconclusive = small, poorly fitted or top-dose-only effect, or another doubt; inactive = no such curve, though single readings can be large or run the other way; also: series mostly up to about 120 µM
Target sequence (P11473 whole entry, looked up): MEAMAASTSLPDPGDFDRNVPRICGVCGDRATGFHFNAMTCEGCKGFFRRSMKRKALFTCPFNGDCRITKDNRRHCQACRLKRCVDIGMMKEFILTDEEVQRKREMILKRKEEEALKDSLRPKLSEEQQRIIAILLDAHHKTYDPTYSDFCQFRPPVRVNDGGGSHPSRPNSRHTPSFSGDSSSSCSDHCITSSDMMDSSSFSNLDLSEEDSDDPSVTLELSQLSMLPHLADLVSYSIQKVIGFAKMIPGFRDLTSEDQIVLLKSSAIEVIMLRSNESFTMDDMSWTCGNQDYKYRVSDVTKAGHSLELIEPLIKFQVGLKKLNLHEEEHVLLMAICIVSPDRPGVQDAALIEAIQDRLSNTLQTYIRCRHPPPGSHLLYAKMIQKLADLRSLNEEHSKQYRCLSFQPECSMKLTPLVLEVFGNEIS
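Two reagent solutions held at 4 deg C in the dark were dispensed, compounds pinned at 23 nl, and the mixture incubated 2 h at room temperature. Read-out: fluorescence polarization of VDR–SRC2-3 peptide binding.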
* marks the source's active call; other numbers are inactive results; ? = inconclusive. % is scaled to controls: 0 for no effect and ±100 for the full control effect; potency is read from the fitted curve at half-maximal effect. Some of the compounds tested; the hit share may differ from the screen's.

VDR inhibitor | SMILES
-26.3% | CC(=O)Nc1ccc(NC(=O)CN(c2cccc([N+](=O)[O-])c2)S(C)(=O)=O)cc1
-21.3% | O=C(Nc1ccccc1C(=O)Nc1ccccc1)c1cccs1
? | Cc1c(OC(C)C(=O)N[C@H](C(=O)O)c2ccccc2)ccc2c3c(c(=O)oc12)CCCC3 (stereo not given in full)
-11.5% | C[C@H](CO)N1C[C@H](C)[C@@H](CN(C)Cc2ccc3c(c2)OCO3)Oc2c(NC(=O)C3CCCCC3)cccc2C1=O
12.0% | COc1cc(S(=O)(=O)NCC2(N3CCCCC3)CCCCC2)ccc1NC(C)=O
-3.8% | Cc1ccc(N(CC(=O)NC2CCCC2)C(=O)Cn2nnc(-c3ccccc3F)n2)cc1
6.1% | CCOc1ccccc1CN1CCN(Cc2cn(C)nc2-c2ccccc2)CC1CCO (stereo not given)
1.7% | CCOc1cccc(NC(=O)c2cnccc2C(F)(F)F)c1

Brought forward from above: 3 entries; new compounds follow.
VDR inhibitor | SMILES
-3.8% | Cc1ccc(N(CC(=O)NC2CCCC2)C(=O)Cn2nnc(-c3ccccc3F)n2)cc1
6.1% | CCOc1ccccc1CN1CCN(Cc2cn(C)nc2-c2ccccc2)CC1CCO (stereo not given)
1.7% | CCOc1cccc(NC(=O)c2cnccc2C(F)(F)F)c1
7.0% | O=C(Cn1cnc2ccccc2c1=O)Nc1ccc(S(=O)(=O)N2CCCC2)cc1
-5.6% | COc1ccc(Cl)cc1NC(=O)COC(=O)C1CC(=O)N(Cc2ccccc2)C1 (stereo not given)
-26.6% | COc1cc(OC)cc(C(=O)Nc2ccc(S(=O)(=O)Nc3cc(C)on3)cc2)c1
-15.7% | Cc1cccc(C)c1OCC(O)CNS(=O)(=O)c1ccccc1C(=O)N1CCCCC1 (stereo not given)
-7.5% | Cc1ccc2nc(-c3ccc(N)cc3)sc2c1
2.7% | Cc1cc(OCC(=O)N2CCC(O)(c3ccc(Cl)cc3)CC2)c2c(C)cc(=O)oc2c1
-2.9% | Cc1cc(C)nc(NC(=O)C(c2ccccc2)c2ccccc2)n1
4.5% | COc1ccc(Oc2ncc3ncc(=O)n(C)c3n2)cc1
-2.0% | Cc1cccc(C(C(=O)NCc2ccc(F)cc2)N(C(=O)c2csnn2)C2CC2)c1 (stereo not given)
-6.6% | O=C(Cn1nc(-c2ccccc2)ccc1=O)N1CCCCC1
-7.0% | CCCOc1ccc(C(=O)Nc2ccc(N3CCN(C(=O)c4ccco4)CC3)cc2)cc1
-9.9% | CSc1ccc(N/N=C(/C#N)S(=O)(=O)C(C)(C)C)cc1
-5.5% | Cc1cc(F)ccc1S(=O)(=O)Nc1ccc2oc3c(c2c1)CC(C)CC3 (stereo not given)
10.9% | Cc1ccc(-c2nc3cccnc3s2)cc1NC(=O)c1ccco1
-9.6% | CC1CC(C)CN(C(=O)c2ccc3c(c2)OCCO3)C1 (stereo not given)
-4.1% | O=C(c1ccccc1)N1CCN(C(=O)c2cc3ccccc3oc2=O)CC1
14.4% | O/N=C1\CC(O)Cc2nonc21 (stereo not given)
4.7% | CN1CCN(S(=O)(=O)c2cccc(C(=O)NC3(C)CCS(=O)(=O)C3)c2)CC1 (stereo not given)
-15.0% | O=C1N/C(=C/c2cccn2-c2ccccc2)C(=O)N1Cc1ccccc1F
-20.1% | CCC1=Nc2cc(C(=O)NCCc3ccccc3)ccc2Sc2ccc(Cl)cc21
4.7% | COc1ccc(S(=O)(=O)Nc2ccc3c(c2)OCO3)cc1Cl
-14.0% | O=C(COc1ccc([N+](=O)[O-])cc1)Nc1ccc(N2CCCC2)cc1
1.3% | COc1ccc(OC)c(-c2nnc3n(Cc4ccc(C)cc4)c(=O)c4ccccc4n23)c1
5.4% | COc1ccc(/C=C2/NC(=O)N(CC(=O)Nc3cccc(C)c3)C2=O)cc1O
4.1% | CCOc1ccc(CCNC(=O)c2c(C)oc3ncn(C)c(=O)c23)cc1
-8.3% | Cc1cc(NC(=O)C2C3C(=O)N(Cc4ccc(Cl)cc4)C(C(=O)NC(C)(C)C)C34C=CC2(C)O4)no1 (stereo not given)
8.0% | CC(C)(C)c1csc(NC(=O)Cn2c(=O)oc3ccccc32)n1
-13.4% | CCCN1CCN(c2ncnc3c2nnn3Cc2ccccc2)CC1
-4.9% | CCOc1ccc(Cn2nnc(-c3ccc(S(C)(=O)=O)cc3)n2)cc1OCC
-2.1% | O=C1NC(c2ccccc2)CCC1(Cl)Cl (stereo not given)
-11.4% | COc1ccc(Br)cc1C(=O)Nc1cccc2ncccc12
15.5% | CN(C)/C=C1/Sc2ccccc2C1=O

Arranged by the number under VDR inhibitor (rising): 6 of the compounds above.
Structure,VDR inhibitor
COc1ccc(Br)cc1C(=O)Nc1cccc2ncccc12,-11.4%
Cc1cc(NC(=O)C2C3C(=O)N(Cc4ccc(Cl)cc4)C(C(=O)NC(C)(C)C)C34C=CC2(C)O4)no1 (stereo not given),-8.3%
CCOc1ccc(Cn2nnc(-c3ccc(S(C)(=O)=O)cc3)n2)cc1OCC,-4.9%
CCOc1ccc(CCNC(=O)c2c(C)oc3ncn(C)c(=O)c23)cc1,4.1%
CC(C)(C)c1csc(NC(=O)Cn2c(=O)oc3ccccc32)n1,8.0%
CN(C)/C=C1/Sc2ccccc2C1=O,15.5%

Next records follow:
VDR inhibitor | SMILES
22.9% | CN(C)/C=C1\C(=O)N(c2ccc(Cl)c(Cl)c2)CS1(=O)=O
79.4µM* | Cc1ccc(Nc2nc(-c3sc(N)nc3C)cs2)cc1
? | O=C(c1ccccc1)c1ccc2nc(N3CCN(C(=O)c4ccco4)CC3)c3nncn3c2c1
4.7% | CCOC(=O)C1CCCN(C(=O)c2cc(-c3ccc(C)cc3)on2)C1 (stereo not given)
-16.5% | COc1ccc(OC)c(NC(=O)[C@H](CSCc2ccccc2)N2Cc3ccccc3C2=O)c1
-6.0% | O=C(NNc1c(Cl)cncc1Cl)c1sccc1Cl
2.8% | Cc1cccc(CN2CCc3c(OCC(=O)N4CCCc5ccccc54)cccc3C2=O)c1
-0.5% | C=C(Nc1ccc(OC)cc1)C(=O)OC
-5.6% | O=C1NC(=O)/C(=C\c2ccc(OCc3cnc(Cl)s3)cc2)S1
-2.4% | COc1ccccc1CNc1ccc(N2CCOCC2)c(C(=O)O)c1
-7.0% | CC(C)(C)n1nnnc1C(c1cccs1)N(Cc1ccccc1)Cc1ccco1 (stereo not given)
9.8% | Cc1c(C)c2ccc(OCC(=O)N3CCOCC3)c(C)c2oc1=O
-3.1% | CC1C(=O)N2CCCc3cc(S(=O)(=O)N(C)Cc4ccccc4)cc1c32 (stereo not given)
-14.4% | O=C(c1cccs1)N1CCCc2ccccc21
25.6% | O=c1c2ccccc2nc(SCc2cn3ccsc3n2)n1-c1ccc(F)cc1
-11.9% | COc1ccc(CC(=O)Oc2ccc(Br)cc2F)cc1S(=O)(=O)N1CCOCC1
0.1% | Cc1ccc(NC(=O)CCN2C(=O)C3CCCCC3C2=O)cc1[N+](=O)[O-] (stereo not given)
-9.0% | Cc1cccc(NC(=O)CSc2nc(-c3cccs3)cc(C(F)(F)F)c2C#N)c1C
3.9% | COc1ccc(C2=C(N3CCN(c4cccc(C)c4)C(C)C3)c3ccccc3C2=O)cc1 (stereo not given)
-8.2% | CC1=Nn2c(nc(-c3ccccc3)c2-c2ccccc2)NC(=O)C1Br (stereo not given)
8.1% | CCCn1c(=NC(=O)CCS(=O)(=O)c2ccccc2)sc2cc(S(N)(=O)=O)ccc21
1.6% | CCOC(=O)CNC(=O)Cn1cnc2c(nnn2-c2cccc(OC)c2)c1=O
-10.2% | O=C(CCCCCCN1C(=O)c2ccccc2C1=O)Nc1nccs1
8.9% | CCOc1ccc(NC(=O)CCN2CCN(S(=O)(=O)c3cc(Cl)ccc3OC)CC2)cc1
4.3% | O=C(Nc1c(C(=O)N2CCN(c3ccccc3)CC2)oc2ccccc12)c1ccccc1F
4.9% | CN(C)C(=O)c1cn(-c2ccccc2)nc1-c1cccs1
2.9% | Cn1c(/N=C/c2ccc3c(c2)OCO3)nc2ccccc21
2.3% | CCOc1ccc(N=C2NC(=O)S/C2=C\c2ccc(OC)cc2)cc1
12.3% | CCCC1CC(c2csc(N)n2)CCO1 (stereo not given)
7.1% | O=C(c1ccc(Oc2ccc([N+](=O)[O-])cc2Cl)cc1)N1CCCC1
-0.3% | CC1=C(c2ccc(C)cc2)S(=O)(=O)N(Cc2ccc(C(=O)Nc3ccc(C)c(F)c3)cc2)C1=O
20.3% | CN(CC(=O)Nc1ccccc1Br)C(=O)c1ccncc1
-3.2% | Cc1ccc(Oc2ccccc2NC(=O)C2=COCCO2)cc1
-2.7% | O=C(c1ccco1)N1CCCC(c2nc3c(nnn3Cc3ccccc3)c(=O)[nH]2)C1 (stereo not given)
5.2% | [N-]=[N+]=NCC1OC(n2cnc3c(=O)[nH]c(N)nc32)C(O)C1O (stereo not given)
-18.1% | Cc1cc(C)c(C#N)c(SCC(=O)Nc2ccc(S(=O)(=O)Nc3onc(C)c3C)cc2)n1
3.0% | CC1CN(c2oc(Cc3cccc4ccccc34)nc2C#N)CC(C)O1 (stereo not given)
6.5% | COc1cccc(C2C(C(=O)c3cccs3)=C(O)C(=O)N2CCN2CCOCC2)c1 (stereo not given)
11.6% | CCC1(C)NC(=O)N(CC(=O)N2CCC(Cc3ccccc3)CC2)C1=O (stereo not given)
5.1% | CCN(CC(=O)Nc1ccccc1C(F)(F)F)C(=O)CN1C(=O)NC(C)(c2ccc3ccccc3c2)C1=O (stereo not given)
? | O=C(Cc1n[nH]c(=O)c2ccccc12)OCC(=O)N(Cc1ccccc1)Cc1ccccc1
-16.8% | COc1ccc2oc(=O)c(C(=O)NCCc3c(C)[nH]c4ccc(F)cc34)cc2c1
1.0% | CC12CCC(C(=O)Nc3nc4ccccc4s3)(OC1=O)C2(C)C (stereo not given)
-3.9% | Cc1ccsc1C(=O)NN=C1CCCCCC1
-5.2% | COc1cc(CNC2CCCCCCC2)c(Br)cc1OCCO
-11.4% | CC(=O)OCC(NC(=O)C1CCCN1C(=O)OC(C)(C)C)C1OC(n2cc(F)c(=O)[nH]c2=O)C(OC(C)=O)C1OC(C)=O (stereo not given)
? | CCCCCC(O)/C=C/C=O (stereo not given)
-12.3% | CCOc1cc(NC(=S)NCC2CCCO2)c(OCC)cc1NC(=O)CC(C)C (stereo not given)
-6.2% | COC(=O)c1c(NC(C)=O)sc(C(=O)Nc2ccccc2C)c1C
-5.1% | COCC(C)n1c(C)cc(C(=O)CSc2ccc(NC(C)=O)cc2)c1C (stereo not given)
1.0% | O=C(COC(=O)COc1ccccc1[N+](=O)[O-])Nc1ccc2c(c1)OCO2
-0.1% | CCOc1ccccc1/C=N/NC(=O)C[n+]1ccccc1
-1.5% | O=C1CC(c2nnc(Cc3c(F)cccc3Cl)o2)CN1c1ccccc1 (stereo not given)
-6.2% | COc1cccc(CNC(=O)c2cc3c(=O)oc4ccc(C)cc4c3s2)c1
-20.2% | CCC(C)NCC(=O)Nc1ccc([N+](=O)[O-])cc1C(=O)Nc1ccccc1F (stereo not given)
-13.6% | CCN(Cc1ccccc1)S(=O)(=O)c1ccc(C(=O)N(CCCN(C)C)c2nc3c(F)cccc3s2)cc1

Additional records follow:
VDR inhibitor | SMILES
-1.4% | O=C(NC(=O)N1CCSCC1)c1c(Cl)cccc1Cl
-2.2% | Cc1ccccc1C(=O)Nc1cccc(C(=O)Nc2ccccc2C(=O)O)c1
-10.0% | CC(C)(C)OC(=O)N1CCC(Cc2cc(-c3ccccc3)no2)(C(=O)O)CC1
-6.9% | Cc1ccccc1NC(=O)/C(=C/c1ccco1)c1ccccc1
2.3% | O=C(NCCc1ccccc1)C1CCC(=O)N(Cc2ccc(Cl)cc2)C1 (stereo not given)
9.0% | COc1cc2c(=O)n(CCC(=O)NCC3CCCO3)c(=O)n(CC(=O)Nc3c(C)cccc3C)c2cc1OC (stereo not given)
1.6% | Cc1cccc(OCC(=O)Nc2ccccc2F)c1
-19.9% | CSCCC(=O)N1CCCC(CNC(=O)c2ccc(-c3ccccc3)cc2)C1 (stereo not given)
-12.2% | O=C(c1cccs1)N1CCC(c2nc(-c3ccc(S(=O)(=O)N4CCOCC4)cc3)no2)CC1
0.6% | O=C(Nc1cc(C(F)(F)F)ccc1N1CCCCC1)c1cccc([N+](=O)[O-])c1
-0.7% | Cc1cccc(N=C2CCCC2C(=O)Nc2cccc(C)c2C)c1C (stereo not given)
5.6% | O=C(NCc1ccccc1)/C(NC(=O)c1ccccc1)=C(/Sc1ccccn1)c1ccccc1
-14.8% | O=C(CCCN1C(=O)/C(=C/c2cccc(Br)c2)SC1=S)N1CCOCC1
9.3% | COc1ccc(Cn2c(=O)cc(C)[nH]c2=S)cc1
-26.5% | Cc1ccc(CNC(=O)CSc2nc3ccsc3c(=O)n2Cc2ccc(C(=O)O)cc2)cc1
? | Cc1cc(C)cc(OCC(=O)NN2C(=O)c3ccccc3C2=O)c1
6.2% | COc1cc(S(=O)(=O)NC(Cc2c[nH]c3ccccc23)C(=O)O)ccc1NC(C)=O (stereo not given)
-0.2% | CON(C)S(=O)(=O)c1cccc(C(=O)NC2CCSc3ccccc32)c1 (stereo not given)
10.9% | O=C(Nc1ccccc1)c1ccc(NCc2ccco2)c(S(=O)(=O)N2CCOCC2)c1
-27.2% | O=C(c1ccccc1Cc1ccccc1)N1CCN(S(=O)(=O)c2ccccc2[N+](=O)[O-])CC1
6.4% | CCOC(=O)CC1(NC(=O)C2CCC(=O)N(C3CC3)C2)CCCCC1 (stereo not given)
-0.9% | Cc1cccc(NC2=C(Cl)C(=O)OC2OC(=O)c2ccco2)c1 (stereo not given)
-14.5% | O=C(O)c1ccccc1/C=N/Nc1ccc(S(=O)(=O)N2CCCC2)cc1[N+](=O)[O-]
-3.6% | O=C(c1ccc2[nH]c(=O)c(=O)[nH]c2c1)N1CCc2ccccc21
-15.6% | CC(Sc1nnc(C2CC2)n1N)C(=O)NC1CCCCC1C (stereo not given)
